High-throughput results from PubChem.
TRPML1 ag: activates the human TRPML1 channel; Q9GZU1; TRPML1-expressing cells, Ca2+ dye fluorescence, FDSS; host cell line not named in the record; reference of the full effect not given here; activation, % (concentration not given with the values); 0.12% of 410,000 active; AID 624414; in the data active = activation above about 50%; inconclusive = about 30% to 50%; inactive = below about 30%; further: 0% is about no effect; the text of the record puts the active cut at 80%
Target sequence (Q9GZU1 whole entry, looked up): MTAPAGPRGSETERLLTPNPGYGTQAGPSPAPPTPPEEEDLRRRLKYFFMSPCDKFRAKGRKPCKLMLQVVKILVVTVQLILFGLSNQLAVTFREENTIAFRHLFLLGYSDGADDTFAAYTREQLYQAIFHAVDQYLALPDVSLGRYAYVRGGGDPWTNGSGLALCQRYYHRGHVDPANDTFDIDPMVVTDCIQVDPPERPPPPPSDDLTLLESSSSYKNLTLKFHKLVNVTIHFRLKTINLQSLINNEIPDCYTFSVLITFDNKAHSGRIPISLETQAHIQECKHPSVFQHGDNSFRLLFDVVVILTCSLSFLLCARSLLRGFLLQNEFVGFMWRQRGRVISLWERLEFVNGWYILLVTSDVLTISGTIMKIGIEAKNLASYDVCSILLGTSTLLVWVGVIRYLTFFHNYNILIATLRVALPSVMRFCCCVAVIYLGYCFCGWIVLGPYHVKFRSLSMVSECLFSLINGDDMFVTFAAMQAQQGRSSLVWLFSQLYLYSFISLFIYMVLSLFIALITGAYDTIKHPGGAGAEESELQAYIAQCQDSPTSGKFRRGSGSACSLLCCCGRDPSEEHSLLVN
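Kinetic FDSS Ca2+ read in Tet-induced TRPML1-DL cells (ABD Ca8 dye plus quencher, 45-90 min RT loading): baseline, then compound, then 110 s agonist window; EC80 agonist 54-4 at 4uM final added afterwards for a 110 s antagonist window.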
Menin-MLL FL inh: menin-MLL binding inhibition, fluorescein peptide; Fluorescence polarization, fluorescein-MLL peptide displacement from menin; FP activity change, % at 61.4 µM; 290,000 tested, under 10 active; AID 1766; inconclusive = falling polarisation curve, or a change in total fluorescence; inactive = total fluorescence flat and polarisation flat or rising; no compound was filed as active; the % refers to the polarisation; negative = inhibition;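 further: % of control where 0% means no effect; inhibitors lower the polarisation; unlabelled MLL peptide was the positive control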
Sfp inh: inhibitors of Bacillus subtilis Sfp phosphopantetheinyl transferase; 3.5% of 310,000 active; Biochemical Sfp PPTase activity, qHTS; AID 1490; Potency, µM, for the others: max response, negative = inhibition, actives largely listed as inhibitors; active means well fitted inhibition curve with a large enough effect; inconclusive means small, poorly fitted or top-dose-only effect, or another doubt; inactive means no such curve, though single readings can be large or run the other way;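 further: the enzyme is Sfp with the accession as filed and its product quenches rhodamine fluorescence; potency means the concentration at half of the fitted maximal effect; 0% = enzyme reaction without inhibitor and -100% = no enzyme wells; top concentration of the series not given in the record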
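Reaction rates are the 30-min fluorescence difference (ex 525, em 598 nm) in wells containing 15 nM Sfp, 5 uM rhodamine-CoA and 12.5 uM BHQ-2-YbbR at pH 7.6 with 10 mM MgCl2.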
PINK1 expr mod: modulators of PINK1 expression | PINK1 immunofluorescence, high-content cytometry, 24 h | Potency, µM (highest dose often 76.6 µM), for inactives: at the top dose activation (PINK1 increase), most hits filed as activators | 0.2% of 410,000 active; active = well fitted activation curve with a large enough effect; inconclusive = small, poorly fitted or top-dose-only effect; inactive = flat fitted curve, though single readings scatter; cell line not stated here;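 further: potency means the concentration at half of the fitted maximal effect; % of control where 0% means no effect; nearly all actives have a fitted effect of over 65% in size; a mitochondrial uncoupler was the plate control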
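Stable cell line treated 24 h with compounds at 5 concentrations (CCCP controls), then fixed and immunostained for PINK1 plus nuclear and cell stains; PINK1 immunofluorescence quantified by laser-scanning microplate cytometry.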
ClpP mod: qHTS Assay for Activators of ClpP | ATP-dependent Clp protease proteolytic subunit (Bacillus subtilis (strain 168)), P80244 | purified B. subtilis ClpP, FRET peptide cleavage, 20 min | Potency, µM (series often up to 57.5 µM), inactives show at the highest dose activity change, negative = active | 1.9% of 340,000 active | AID 651965, 2013; active = well fitted falling curve with a large enough effect; inconclusive = small, poorly fitted or top-dose-only effect; inactive = no such curve, though single readings can be large or run the other way; further: potency means the concentration at half of the fitted maximal effect; the source files actives as falling curves though it sought activators and does not explain the sign; nearly all actives have a fitted effect of over 65% in size; many hits overshoot -100%
Target sequence (P80244 whole entry, looked up): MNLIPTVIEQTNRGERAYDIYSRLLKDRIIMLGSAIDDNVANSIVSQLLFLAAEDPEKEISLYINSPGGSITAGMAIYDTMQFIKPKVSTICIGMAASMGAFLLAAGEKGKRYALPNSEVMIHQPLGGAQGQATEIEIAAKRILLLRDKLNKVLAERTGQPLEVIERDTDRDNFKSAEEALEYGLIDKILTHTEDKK
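Purified B. subtilis ClpP, 10 microg/mL final in Tris/HCl pH8 with KCl, BSA, glycerol and Tween-20, cleaved an Abz/nitrotyrosine-quenched decapeptide. Fluorescence (ex 320, em 430) was read at 0 and 20 min at room temperature. Delta was normalized to 5.8 microM ADEP and DMSO/no-enzyme controls.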
TRPV1 potentiator: potentiators of human vanilloid receptor 1 (TRPV1); Q8NER1; TRPV1-expressing cells, Fluo-8 calcium influx, capsaicin EC20 potentiation; host cell line not named in the record; control for the full effect not named in the record; 0.02% of 320,000 active; potentiation, % at 8.33 µM; active means potentiation above 80%; inconclusive means 30% to 80%; inactive means below 30%; further: 0% is about no effect
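Cells expressing TRPV1 were dye-loaded with Fluo-8 and read kinetically: 10 s baseline, 3 min after compound (agonist portion), then 2 min after EC20 capsaicin (allosteric enhancer portion). Calcium-bound dye fluorescence at 480/520 nm.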
TRPML1 inh: inhibitors of human TRPML1 channel; Q9GZU1; TRPML1-inducible cells, Ca2+ dye fluorescence, FDSS; active compounds read low; inhibition of EC80 agonist-evoked calcium signal; activity change, negative = inhibition, % (test concentration not listed); 0.02% of 390,000 active; in the data active means activity change below about -50%; inconclusive means about -30% to -50%; inactive means above about -30%;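 further: stimulus is agonist 54-4 at its EC80 concentration; on the % scale 0 is the no-effect control and ±100 the full control effect; compound concentration not given in the record; the text of the record puts the active cut at -80%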
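Tet-induced TRPML1-DL cells loaded with Ca8 no-wash calcium dye were read kinetically on FDSS. Compound addition was followed by EC80 agonist 54-4 (4 uM final); inhibition was read over 110 s.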
* marks the source's active call; other numbers are inactive results; ? = inconclusive; . = no result given; [ ] = dose if it differs, or a comment.

nr	Compound	Menin-MLL FL inh	Sfp inh	PINK1 expr mod	TRPML1 ag	ClpP mod	TRPV1 potentiator	TRPML1 inh
1	O=C(Nc1ccc([N+](=O)[O-])cc1)c1ccc(S(=O)(=O)N2CCCC2)cc1	-1.7	21%	?	0.3	.	-8	-2
2	Cn1cccc1/C=C1\SC(=S)N(CC(=O)O)C1=O	?	-7%	-1.0%	2.3	-1.2%	7	-10
3	Cc1cccc(C)c1NC(=O)Cn1nnc(-c2ccc(N3CCOCC3)cc2)n1	1.8	-9%	?	-0.7	?	0	-7
4	CC(C)C[C@H]1CN([C@@H](CC(C)C)CN2CCC[C@@H]2CN2C(=O)C(=O)NC[C@@H]2Cc2ccccc2)C(=O)C(=O)N1CC1CCCCC1	.	.	3.2%	-0.5	-0.5%	.	10
5	CCn1ccnc1CN1CCN(CCC(C)C)C(CCO)C1 (stereo not given)	-5.2	-15%	-0.7%	-0.2	1.9%	1	3
6	CC(C)(C)NC(=O)c1ccccc1NC(=O)C1CC(=O)N(C2CCCCC2)C1 (stereo not given)	6.5	17%	2.1%	-1.4	0.0%	-7	6
7	COc1cc(CNc2ncnc3c2ncn3[C@H]2CN(Cc3ccc(-c4ccccc4)cc3)C[C@@H](CO)O2)cc(OC)c1OC	.	.	0.5%	0.2	1.6%	.	.
8	O=c1[nH]c(-c2ccccc2F)nc2c1sc(=S)n2Cc1ccccc1	0.4	8%	?	0.0	-3.0%	2	-12
9	COCC(=O)N1CCCC(C)(C(=O)Nc2cccc(Oc3ccccc3)c2)C1 (stereo not given)	.	.	-0.7%	-0.7	-1.7%	.	.
10	CCCNC(=O)c1ccc2c(=O)c(O)c(-c3ccc(Cl)c([N+](=O)[O-])c3)[nH]c2c1	1.1	10%	2.3%	-1.1	-2.4%	16	4
11	Cc1cc(C)cc(C(=O)Nc2cccc(-c3nc4ncccc4o3)c2C)c1	.	.	-1.5%	-0.2	0.1%	.	1
12	CCOC(=O)c1c(C)[nH]c(C(=O)OCC(=O)N2CCCC2=O)c1C	.	.	-1.8%	-0.4	0.8%	-2	3
13	CCOc1ccc(OCC)c(NC(=O)CN(c2ccc(C)cc2)S(=O)(=O)c2c(C)noc2C)c1	5.0	22%	1.6%	0.8	1.2%	11	10
14	O=C(c1cc(S(=O)(=O)N2CCCCC2)c(Cl)cc1N1CCOCC1)N1CCOCC1	-3.8	5%	-1.5%	-0.3	-0.7%	-4	-21
15	CCN(c1ccc(NC(=O)c2ccc(Cl)nc2)cc1)C(C)C	4.3	7%	11%	-0.3	1.0%	-11	14
16	CC1CCN(S(=O)(=O)c2cc(C(=O)NCc3ccc(N(C)C)cc3)n(C)c2)CC1	.	.	-0.3%	0.5	-1.2%	.	-11
17	COc1ccc(NC(=O)CC(NC(C)c2ccccc2)C(=O)O)cc1 (stereo not given)	6.6	-10%	1.2%	0.7	1.3%	-2	12
18	Cc1noc(/C=C/c2cccs2)c1S(=O)(=O)N1CCC(C(=O)NCc2ccccc2Cl)CC1	.	.	0.6%	-0.1	-5.8%	.	13
19	CCCCNC(=O)COC(=O)c1cc(F)c(F)cc1Cl	3.3	14%	-2.4%[38.3 µM]	0.1	-1.4%	-11	14
20	O=C(CCC(=O)N1CCN(C2CCCCC2)CC1)Nc1nnc(C(F)(F)F)s1	0.5	19%	-0.2%	-0.8	13µM*	5	5
21	CCN(CC(=O)NC(C)C)C(=O)[C@H](C)NC(=O)c1ccc(Br)cc1	-2.7	12%	-1.3%	-0.4	-1.5%	17	3
22	COc1ccc(C2=NOC3(CC(=O)N(c4ccc5ccccc5c4)C3=O)C2)c(OC)c1 (stereo not given)	13	3%	-2.0%[38.3 µM]	-0.1	0.4%	-10	-10
23	CCOC(=O)CC(NC(=O)CCc1c(C)nc2c(c1C)c(=O)n(C)c(=O)n2C)c1ccc(OCC)c(OC)c1 (stereo not given)	.	.	1.4%	-0.7	-1.3%	.	28
24	O=C(Nc1ccccc1)Nc1cc([N+](=O)[O-])ccc1F	2.0	11%	-1.9%	0.6	0.3%	-16	6
25	Cc1ccc(Oc2nc3ccccn3c(=O)c2/C=C(\C#N)C(=O)Nc2c(C)n(C)n(-c3ccccc3)c2=O)cc1	1.7	-3%	5.2%	-0.3	?	4	-9
26	Cc1ccc(-n2c(=O)c3c(c4cc(C)ccc4n3C)n(CC(=O)c3ccc(Cl)cc3)c2=O)cc1	.	.	1.0%	0.9	-2.2%	.	9
27	O=C(Cc1cccs1)Nc1cc(SCCO)cc([N+](=O)[O-])c1	-1.8	0%	-2.4%	-0.4	0.7%	-7	0
28	CCCOc1ccc(NC(=O)CC2C(=O)N(CC)C(=S)N2CCCN2CCN(Cc3ccccc3)CC2)cc1 (stereo not given)	0.2	7%	-1.2%	0.7	-0.6%	-7	1
29	Cn1c(=O)oc2ccc(C(=O)CSc3nnnn3-c3ccccc3)cc21	2.8	13%	21%[38.3 µM]	-0.8	1.2%	-11	-7
30	Cc1noc(NC(=O)c2ccccc2)c1C#N	9.2	13%	-0.6%	-1.0	0.6%	12	-2
31	c1ccc(CCC2CCCCN2Cc2nc(-c3ccc4c(c3)OCO4)no2)nc1 (stereo not given)	-0.8	-8%	-1.4%	0.2	.	-1	-4
32	CCOC(=O)C(NC(=O)c1ccccc1)(N1CCCC1=O)C(F)(F)F (stereo not given)	-1.8	-22%	-1.1%	0.5	1.4%	13	7
33	NC(C(=O)O)C1ON=C(Cl)C1O (stereo not given)	.	.	-5.4%	-0.3	0.2%	.	-7
34	O=C1c2ccccc2NC(c2ccccc2)N1NS(=O)(=O)c1ccccc1 (stereo not given)	0.5	16%	-0.2%	0.8	.	-1	-6
35	O=C(COc1ccc(S(=O)(=O)NC2CCCC2)cc1)N1CCCCCC1	0.7	13%	-0.5%	0.7	1.4%	1	34
36	CC(=O)c1cnc(-c2cccc(Cl)c2)s1	-0.2	21%	3.1%	1.0	-1.9%	1	16
37	O=C(NCc1ccccc1F)C1CCCN1C(=O)Nc1cccc(F)c1 (stereo not given)	1.5	14%	0.9%	-0.2	.	-15	20
38	Cc1ccc(-c2noc(CN(C(=O)Cc3ccccc3)C(C)C)n2)cc1	-0.6	6%	-1.9%[38.3 µM]	2.4	1.2%	-2	51
39	O=S(=O)(NC(=S)NC1CCCCC1)c1ccccc1	-5.9	?	2.3%	-0.4	0.9%	8	2
40	O=C(c1ccccn1)c1conc1C(=O)c1ccc(Br)cc1	3.3	-6%	3.3%[38.3 µM]	1.3	-2.4%	-7	31
41	CCC(=O)c1ccccc1OCCCCn1cncn1	-7.2	?	2.0%	.	-8.8%	-5	.
42	O=C(CSc1n[nH]c(=O)[nH]c1=O)Nc1ccc2c(c1)C(=O)c1ccccc1C2=O	-0.7	-17%	-1.0%	.	0.8%	16	.
43	CC1=N/C(=C\c2ccc([N+](=O)[O-])cc2)C(=O)N1c1cc(Cl)ccc1C	-1.9	56µM*	.	0.4	-0.1%	6	50
44	O=C(COC(=O)/C=C/c1cccc(Cl)c1)Nc1ccc2[nH]c(=O)[nH]c2c1	.	.	0.9%	-0.4	-0.2%	-14	7
45	OC(c1ccccc1)c1nc(-c2csc3ccccc23)cs1 (stereo not given)	.	.	8.3%	1.9	-2.5%	.	.
46	CC(C)CCn1c(=O)c2ccccc2n2c(CN(C)Cc3ccccc3)nnc12	-2.6	?	0.6%	0.0	0.4%	-19	52
47	Nc1ncnc2c1ncn2[C@@H]1O[C@H](C(=O)N2CCC[C@@H]2C(=O)OCc2ccccc2)[C@@H](O)[C@H]1O	.	.	-0.9%	0.5	-1.8%	.	9
48	Cc1ccccc1C#CC1=CC(=O)CC(C)(C)C1	.	.	16%	0.6	0.9%	.	37
49	COc1ccc(-c2n[nH]c3c2CN(C(=O)c2ccc(OC)c(OC)c2)CC3)cc1	.	17%	13%	1.2	-0.9%	3	1
50	COc1ccccc1NC(=O)c1ccc2nc(-c3ccccc3)c(-c3ccccc3)nc2c1	-1.0	-26%	6.8%	0.0	-6.8%	-13	31
51	Cc1c(Cl)cccc1NC(=O)C(=O)NCC(c1cccnc1)N1CCN(c2ccccc2)CC1 (stereo not given)	.	.	1.0%	-0.1	1.6%	.	17
52	Cc1ccc(NC(=O)C(=O)NCC2CCCN2S(=O)(=O)c2cccs2)c(C)c1 (stereo not given)	.	.	-1.6%	0.3	-3.6%	-12	-18
53	CCCc1[nH]nc2c1C(c1cccc(OC(=O)c3ccco3)c1)C(C#N)=C(N)O2 (stereo not given)	-1.3	-15%	.	-0.1	0.6%	-23	-11
54	C/C(=N\NC(=O)c1c(C)nc2ccccn12)c1ccc(O)cc1O	?	8%	?	1.4	-12%	4	-8
55	Cc1cc(C)cc(-n2nnc(-c3nsc(NC(=O)c4ccccc4Cl)n3)c2C)c1	.	.	3.7%	0.2	2.4%	.	26
56	COc1ccc(CNc2nc(-c3ccccc3)nn2C(=O)c2ccc([N+](=O)[O-])cc2)cc1	0.2	1%	1.5%	-0.6	6.5%	-1	-14

Entries listed so far containing bromine, in the order listed:
nr	Compound	Menin-MLL FL inh	Sfp inh	PINK1 expr mod	TRPML1 ag	ClpP mod	TRPV1 potentiator	TRPML1 inh
21	CCN(CC(=O)NC(C)C)C(=O)[C@H](C)NC(=O)c1ccc(Br)cc1	-2.7	12%	-1.3%	-0.4	-1.5%	17	3
40	O=C(c1ccccn1)c1conc1C(=O)c1ccc(Br)cc1	3.3	-6%	3.3%[38.3 µM]	1.3	-2.4%	-7	31
